Screening results deposited in PubChem by Fisher Drug Discovery Resource Center.
NPYLR7 ag: agonists of mosquito NPYLR7 receptor, primary screen, cell-based, Aedes aegypti, calcium fluorescence, mosquito biting behavior; Aedes aegypti neuropeptide Y-like receptor 7 (NPYLR7); HEK293T NPYLR7/Galpha15, GCaMP6s calcium fluorescence; activation, % at 10 µM; 0.15% of 270,000 active; AID 1259423, 2018; in the data active = activation above about 40%;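 also: 0% = vehicle and 100% = reference agonist at the receptor; some compounds past the cut are filed as inactive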
NPYLR7 ag max-min: further read-out of NPYLR7 ag, marked with its call; activation, %; measured here: Max-Min RFU normalised activation; some inactives read as strong as hits;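 span of the calcium signal over five minutes; 0% = vehicle and 100% = native peptide agonist; compound fluorescence can raise it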
* marks the source's active call; other numbers are inactive results. Only part of the results is shown (hit frequency here may not be typical).

structure,NPYLR7 ag,NPYLR7 ag max-min
C[C@H](C(=O)NCCCn1ccnc1)N1Cc2ccc(-c3cccnc3)nc2C1=O,12,24
CCc1cn[nH]c1C1CCCN(C(=O)c2cnc3c(c2)nnn3C)C1 (stereo not drawn),0,1
COc1cc(=O)n(-c2ccc(F)cc2)nc1C(=O)N(C)c1ccccc1,12,2
CCC1CN(C(=O)c2ccnc(OC)c2)CCC(=O)N1Cc1ccccc1 (stereo not drawn),0,-13
O=C(CCNCc1ccc(Cl)cc1)Nc1cccc(F)c1,0,-11
CC(C)c1ccc(Oc2cnn(C)c(=O)c2Nc2cccc(C(=O)NCc3ccccn3)c2)cc1,-8,-3
CCCN1CC(NC(=O)CN2CCC(C)=N2)CC1=O (stereo not drawn),22,16
Cc1nc2c(c(=O)[nH]1)CCN(C(=O)CCCN1CCCCC1=O)C2,7,4
CCCNC(=O)CN(C)CC(=O)N1c2ccccc2OCC1c1ccccc1 (stereo not drawn),2,1
CCCCS(=O)(=O)N1CCCCC1C(=O)Nc1ccccc1O (stereo not drawn),8,4

Carrying on.
structure,NPYLR7 ag,NPYLR7 ag max-min
Cc1cc(C(=O)NCc2ccc3c(c2)OCO3)nc2cc(-c3ccccc3)nn12,5,19
CCOc1ccc2nc(N3CCCC3C(=O)NCCCn3cccn3)nc(C)c2c1 (stereo not drawn),15,1
CNC(=O)CCN1CCOC(c2cccc(C(F)(F)F)c2)C1 (stereo not drawn),-22,-24
CCc1nn(C(=O)c2ccccc2)c2c1C(=O)CC(C)(C)C2,8,5
CC1(C)O[C@@H]2C[C@@](OCc3cccc(Cl)c3)(C(=O)NCc3ccco3)CC(OCc3cccc(C(F)(F)F)c3)[C@@H]2O1 (stereo partly drawn),16,7
CCOC(=O)c1cnc(C)nc1NCc1cccc(F)c1F,27,26
Cc1nn(C)c2sc(C(=O)N(C)CCC(O)c3ccccc3)cc12 (stereo not drawn),-2,-4
O=C1OC23CCC(CC2)N(C(=O)Cc2ccc(F)cc2)C3CN1Cc1ccccc1 (stereo not drawn),13,20
CCC1(C2CCN(C(=O)c3ccc(-c4ccccc4)[nH]3)CC2)NC(=O)NC1=O (stereo not drawn),2,-3
Cc1cnc(NC(=O)c2cc(S(=O)(=O)N3CCOCC3)cn2C)s1,0,1

Random excerpt: four entries already listed, in no set order.
structure,NPYLR7 ag,NPYLR7 ag max-min
CCC1(C2CCN(C(=O)c3ccc(-c4ccccc4)[nH]3)CC2)NC(=O)NC1=O (stereo not drawn),2,-3
CCOC(=O)c1cnc(C)nc1NCc1cccc(F)c1F,27,26
CCCN1CC(NC(=O)CN2CCC(C)=N2)CC1=O (stereo not drawn),22,16
CC1(C)O[C@@H]2C[C@@](OCc3cccc(Cl)c3)(C(=O)NCc3ccco3)CC(OCc3cccc(C(F)(F)F)c3)[C@@H]2O1 (stereo partly drawn),16,7

Later entries.
structure,NPYLR7 ag,NPYLR7 ag max-min
CCc1ccc(NS(=O)(=O)c2ccc(S(=O)(=O)N(C)C)cc2)cc1,5,5
COc1ccc(CNC(=O)C2CC3CCCC(C2)C3=O)cn1 (stereo not drawn),-1,-2
COc1cc(-c2cc(NC=O)c3ncc(-c4ccc(F)cc4)n3c2)cc(OC)c1OC,-6,-11
CCOC(=O)c1c(N)sc(C)c1CC(C)CC (stereo not drawn),9,8
Cc1cc(CN2C(=O)C(C)Sc3ccc(S(C)(=O)=O)cc32)no1 (stereo not drawn),6,5
C=C(Cl)CNC(=O)NC(C)c1ccc(-n2cccn2)cc1 (stereo not drawn),15,21
O=C(Nc1cccc(-n2cnnn2)c1)c1ccc(S(=O)(=O)N2CCCC2)cc1,-6,-8
Cc1cc(=O)[nH]c(O)c1C#N,3,7
O=c1[nH]cnc2c(F)cc(Br)cc12,0,27
CC(=O)CSc1nc2c(cnn2CCO)c(=O)[nH]1,3,1

Overlap with the part before: four entries; new compounds follow.
structure,NPYLR7 ag,NPYLR7 ag max-min
O=C(Nc1cccc(-n2cnnn2)c1)c1ccc(S(=O)(=O)N2CCCC2)cc1,-6,-8
Cc1cc(=O)[nH]c(O)c1C#N,3,7
O=c1[nH]cnc2c(F)cc(Br)cc12,0,27
CC(=O)CSc1nc2c(cnn2CCO)c(=O)[nH]1,3,1
Cc1ncc([N+](=O)[O-])n1CCn1c([N+](=O)[O-])cnc1C,-3,-7
CC(C)(C)NC(=O)C(=Cc1ccco1)NC(=O)c1ccccc1,-3,-1
CCC(C)C(NC(=O)c1ccc([N+](=O)[O-])cc1)C(=O)Nc1nnc(-c2ccc3c(c2)OCO3)s1 (stereo not drawn),0,10
CCn1c(CN2CCC3(CCCN(CC4CCC4)C3)C2)nc2ccccc21 (stereo not drawn),8,4
CCc1nc(SCC(=O)NC(C)Cc2ccncc2)n[nH]1 (stereo not drawn),10,8
CCOC(=O)c1nnn(-c2nonc2-n2cccc2)c1C,6,4
CCN(Cc1ccccc1)S(=O)(=O)c1c(N)n(C)c(=O)n(C)c1=O,-1,-3
COc1ccc(CCN(Cc2ccc(C)o2)C(=O)CN(CCN2CCOCC2)C(=O)c2ccc(F)cc2)cc1OC,-2,1
Cc1cc(F)c2c(c1)CCCN2S(=O)(=O)c1ccc(OCC(=O)O)cc1,1,0
CCOc1ccc(NC(=O)NCCN2CCN(c3nc(Cc4cccc(OC)c4)ns3)CC2)cc1,-10,-14

(next part)
structure,NPYLR7 ag,NPYLR7 ag max-min
C=CCN(CCO)Cc1nc(-c2cc(Br)cs2)no1,0,25
CCc1ccc2nc(CCC(F)(F)F)[nH]c(=O)c2c1,2,2
COCCOC(=O)C1=C(C)Nc2ncnn2C1c1ccc(Cl)cc1 (stereo not drawn),6,1
COC(=O)c1ccc(NC(=O)CCc2c(C)nn(-c3nc(C)c(C)c(=O)[nH]3)c2C)cc1,9,1
O=C(Nc1c2c(nn1-c1ccc(Oc3ccccc3)cc1)CSC2)C1CC1,-2,-1
CC(C)c1ccc(Oc2ccc3nnnn3n2)cc1,-2,2
CCc1noc(CC)c1CNC(=O)CCOCC1CCCO1 (stereo not drawn),0,-2
Cc1nc(CN(C)C(=O)COc2ccc(F)cc2)no1,3,7
Cc1ccn2c(NCc3ccccc3)c(-c3ccccc3O)nc2c1,4,3
Cc1cc(CNc2nccc(N3CCC(O)CC3)n2)c2[nH]c(C)c(C)c2c1,-1,-3

The list continues:
structure,NPYLR7 ag,NPYLR7 ag max-min
COc1nc2cn(C(C)C)c(O)c2cc1CN1CCCC1c1ccccn1 (stereo not drawn),-1,5
O=C(CSc1ccccc1Cl)Nc1ccccc1I,-3,-7
CCOCCCN(CC(=O)N(Cc1ccc2c(c1)OCO2)Cc1ccco1)C(=O)c1cccc(C(F)(F)F)c1,-3,-2
CC(C)N1CC(OCc2ccc(F)cc2)CN(C(=O)c2ccc(-n3cccn3)cc2)CC1=O (stereo not drawn),14,3
CN1CCN(C(=O)c2cc3cccnc3n(Cc3ccc(F)cc3)c2=O)CC1,17,9
CCCc1cc(C(=O)OCC)nn1C1CCN(C(=O)c2ccco2)CC1,34,26
Cc1nn2c(N3CCCCC3)cc(C(C)C)nc2c1-c1ccccc1,0,1
NC1=NC2(CCSCC2)n2c(nc3cc4c(cc32)OCCCO4)N1,5,4
Cc1cccc(OCC(=O)NNC(=O)C(c2ccc(Cl)cc2)C(C)C)c1 (stereo not drawn),2,0
Cc1ncc(CNC(=O)C(=O)Nc2ccc(C(F)(F)F)cc2)s1,6,1

Next records:
structure,NPYLR7 ag,NPYLR7 ag max-min
COc1ccc(OC)c(C2CC(c3ccc(C)cc3C)=NN2C(=O)CN2CCOCC2)c1 (stereo not drawn),0,4
Clc1ncnc2c1c(-c1ccccc1)cn2-c1ccccc1,-6,-12
O=C(CCC1CCCO1)Nc1ccccc1Br (stereo not drawn),7,4
COc1ccc(C#N)c(NS(=O)(=O)c2cc(C(N)=O)n(C)c2)c1,-4,-7
Cc1ccc(CNC(=O)C(=O)NCC2OCCN2C(=O)c2ccc3c(c2)OCO3)cc1 (stereo not drawn),-4,2
O=c1c(=O)n2c(nn1CCc1ccccc1)N(c1ccccc1)CC2,11,4
CN(C)C(CNC(=O)CSC1CCS(=O)(=O)C1)c1ccsc1 (stereo not drawn),12,5
CCC(Nc1cccc(OC)c1)C(=O)N1CCC2(CC1)C(=O)NCCN2C (stereo not drawn),4,3
CN(Cc1nncn1C)c1nccc(C2CCCC2)n1,9,5
COc1cccc(Cn2cccc2CN(CCN2CCOCC2)CC(O)c2ccccc2)c1 (stereo not drawn),-1,9

Further structures.
structure,NPYLR7 ag,NPYLR7 ag max-min
CCCCS(=O)(=O)N(Cc1ccc2c(c1)c1ccccc1n2CC)Cc1ccco1,18,13
CC(=NNc1nc(C)cc(=O)[nH]1)c1ccc(Br)cc1Br,-1,-1
O=C(Nc1ccn(Cc2ccncc2)n1)c1cccc(CN2CCCC2)c1,0,-1
O=C(CCc1ccccc1)Nc1ccnn1C1CCN(Cc2c(F)ccc(F)c2F)CC1,3,-2
COc1ccc(Oc2nc(-c3ccc(OC)cc3)ncc2C(=O)O)cc1,24,11
CCc1nc2ccc(C(=O)NCc3ccccc3OC)cn2c1N(C)CCCc1ccccc1,16,7
Cc1ccc(CN(CCN2CCOCC2)CC(O)COC(C)(C)C)s1 (stereo not drawn),7,18
O=C(C(c1ccccc1)c1ccccc1)N1CCCN(c2nc(Cc3ccc(F)cc3)ns2)CC1,-6,9
CCOCCCNC(=O)C1CCN(C(=O)c2ccc(F)cc2)CC1,9,8
CC1(C)CC2(CC(C)(C)N1)NC(=O)NC2=O,1,-5

Another view of two compounds above:
Fields – NPYLR7 ag, NPYLR7 ag max-min
CCc1nc2ccc(C(=O)NCc3ccccc3OC)cn2c1N(C)CCCc1ccccc1
    16, 7
Cc1ccc(CN(CCN2CCOCC2)CC(O)COC(C)(C)C)s1 (stereo not drawn)
    7, 18

Copied from the list:
C=CCN(CCO)Cc1nc(-c2cc(Br)cs2)no1 @ NPYLR7 ag max-min = 25
Cc1ncc(CNC(=O)C(=O)Nc2ccc(C(F)(F)F)cc2)s1 @ NPYLR7 ag = 6
CCc1nn(C(=O)c2ccccc2)c2c1C(=O)CC(C)(C)C2 @ NPYLR7 ag = 8

(list continues)
structure,NPYLR7 ag,NPYLR7 ag max-min
CS(=O)(=O)c1ccc(-c2cc3ccccc3[nH]2)cc1,1,-1
COc1ccc(C2=NOC(CN(Cc3ccc(F)cc3)C(=O)Nc3ccccc3OC)C2)cc1 (stereo not drawn),14,23
CCOc1ccc(NC(=O)c2cc(Cl)ccn2)cc1OC,14,14
O=C1CCC(C(=O)N2CCN(Cc3cccc(-c4noc(C5CCCC5)n4)c3)CC2)=NN1,0,-3
Cc1ccccc1CSc1nc(=O)[nH]c2c1CCC2,-3,-8
Cc1ccnn1CCC(=O)NC1CC(=O)N(CCc2ccc(F)cc2)C1 (stereo not drawn),-1,-1
Cc1ccc(-n2nnnc2CN2CCN(C(=O)C3CC(=O)N(c4ccccc4)C3)CC2)cc1 (stereo not drawn),-1,-1
COc1cc(OC)cc(C(=O)N2CCC3(CC2)NC(=O)c2cccc(C)c2N3)c1,-1,6
COc1cccc(CN(Cc2ccc(F)cc2)Cc2nc(C(=O)O)co2)c1OC,9,16
CC(C)Cc1noc(C2CCCN(Cc3nc(-c4ccco4)no3)C2)n1 (stereo not drawn),2,22
CC(=O)Nc1cc(-c2cccc(C(F)(F)F)c2)cn2c(-c3cnn(C)c3)cnc12,-7,-11
O=S(=O)(c1ccccc1O)C(F)(F)F,6,6
